# Rango complex inh – qHTS Assay for Inhibitors of Rango (Ran-regulated importin-beta cargo) - Importin beta complex formation; Rango CFP/YFP FRET sensor + importin beta, 45 min; actives 0.031% (n = 340,000); Potency, µM (highest dose often 92.2 µM), without a hit: top-dose inhibition of complex formation; AID 540263, 2011; Importin subunit beta-1 (Homo sapiens), Q14974; active = rising FRET ratio curve, often small or poorly fitted; inconclusive = mostly compound fluorescence or quenching in the first reads; inactive = flat curves in all reads;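 note: potency is the fitted concentration of half-maximal effect; 0% = DMSO wells and 100% = buffer wells lacking importin beta; nearly all actives have a fitted effect of over 15% in size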
# Target sequence (Q14974 whole entry, looked up): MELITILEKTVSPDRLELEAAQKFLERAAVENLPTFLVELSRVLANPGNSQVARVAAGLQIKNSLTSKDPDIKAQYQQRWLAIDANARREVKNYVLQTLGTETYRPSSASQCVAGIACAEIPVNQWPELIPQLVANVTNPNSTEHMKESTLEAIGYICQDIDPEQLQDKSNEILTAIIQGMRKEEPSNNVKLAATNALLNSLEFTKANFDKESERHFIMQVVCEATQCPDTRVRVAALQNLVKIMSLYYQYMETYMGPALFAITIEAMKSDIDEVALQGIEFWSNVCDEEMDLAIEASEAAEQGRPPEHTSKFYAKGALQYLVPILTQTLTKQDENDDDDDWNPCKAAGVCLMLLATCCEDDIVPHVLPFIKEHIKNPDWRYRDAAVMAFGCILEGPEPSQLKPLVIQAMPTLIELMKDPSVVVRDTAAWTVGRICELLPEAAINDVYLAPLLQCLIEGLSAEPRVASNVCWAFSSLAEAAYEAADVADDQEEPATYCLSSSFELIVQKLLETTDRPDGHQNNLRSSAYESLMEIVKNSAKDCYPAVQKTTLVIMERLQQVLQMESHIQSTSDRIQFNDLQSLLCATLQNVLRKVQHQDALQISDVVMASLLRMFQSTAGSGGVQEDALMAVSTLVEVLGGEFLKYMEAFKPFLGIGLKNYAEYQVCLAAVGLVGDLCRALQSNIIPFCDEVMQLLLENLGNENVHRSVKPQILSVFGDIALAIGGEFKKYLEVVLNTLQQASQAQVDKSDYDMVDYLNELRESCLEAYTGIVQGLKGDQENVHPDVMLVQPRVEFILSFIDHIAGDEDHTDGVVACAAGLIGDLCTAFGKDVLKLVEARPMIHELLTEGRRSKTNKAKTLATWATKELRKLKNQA
#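 FRET biosensor (snurportin 1 IBB flanked by EYFP and cerulean), 50 nM, with compound 5 min, then 0.125 microM importin beta in PBS, 1 mM DTT, 0.02% Tween-20, 0.1% BSA. CFP/YFP ratio read after 45 min at room temperature; pre-read flags interference.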
# Rango dissoc inh – qHTS Assay for Inhibitors of RanGTP induced Rango (Ran-regulated importin-beta cargo) - Importin beta complex dissociation. Snurportin-1 (Homo sapiens) + GTP-binding nuclear protein Ran (Homo sapiens) + Importin …. Biochemical FRET Rango-importin beta, RanGTP-induced dissociation. Potency, µM (titrated, usually from 46.1 µM), for the others: top-dose activity change, negative = inhibition. actives 0.071% (n = 340,000); active means falling FRET ratio curve, often poorly fitted, with flat reads before Ran was added; inconclusive means other falling curves, or compound fluorescence or quenching; inactive means flat or rising ratio curve;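 note: potency is the fitted concentration of half-maximal effect; % of control where 0% means no effect; nearly all actives have a fitted effect of over 45% in size; -100% = wells without RanGTP and RCC1; the record marks most hits as doubtful in a second field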
#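 FRET read at 45 min, room temperature: inhibitors block the CFP/YFP signal rise when RanGTP (0.6 uM Ran, 2 mM GTP, 0.2 uM RCC1) frees Rango (0.1 uM) from importin beta (0.25 uM). Pre-read after 5 min compound exposure flags interference.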
# GLA inh pH 4.5 – qHTS Assay for Inhibitors of Human alpha-Galactosidase at pH 4.5; 230,000 tested, under 10 active; activity change, negative = inhibition, % at 105 µM; purified enzyme, 4-MU-alpha-Gal fluorescence, pH 4.5; AID 1467, 2008; inconclusive = small, poorly fitted or top-dose-only inhibition, or a rising curve; inactive = flat fitted curve, though single readings scatter; no compound was filed as active;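 note: 0% = full activity with enzyme and -100% = basal without enzyme; dose as in the result columns while the protocol names 77 µM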
# miR-21 FLuc – qHTS Assay for Modulators of miRNAs and/orActivators of miR-21. Potency, µM (titrated, usually from 38.3 µM), for the others: at the top dose reporter change, positive = more light. 340,000 tested, under 10 active. HeLa miR-21 FLuc reporter, luciferase, 48 h. AID 2288, 2010; active = well fitted rising curve with a large enough effect; inconclusive = small, poorly fitted or top-dose-only effect; inactive = no such curve, though single readings can be large or run the other way;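 note: % of control where 0% means no effect; miR-21 action dims this reporter so a rising signal means less miR-21 action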
#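 HeLa cells endogenously expressing miR-21, stably carrying CMV-driven firefly luciferase with a downstream miR-21 binding site, 2000 cells/well. Titrations up to approximately 40 uM, 48 hours; luciferase luminescence read.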
# Active calls of the source: *; ? = inconclusive; / = no result given; & = joins results of further samples. Not all compounds are listed; rates above refer to the full screens.
SMILES	Rango complex inh	Rango dissoc inh	GLA inh pH 4.5	miR-21 FLuc
OCC(O)C1OC(c2ccccc2)OC(CO)C1O (stereo not given)	-2.3%	0.7%	/	/
COc1ccc(CNC(=O)c2cnc3cc(C)ccn3c2=O)cc1	?	-26.8%	1.3	-1.7%&-5.4%
Cc1ccc(N2C(=O)C3CCCN3C2=S)c(C)c1 (stereo not given)	0.6%	8.1%	/	/
COc1ccc(NC(=O)c2nn(C)c(C(=O)Nc3ccc(OC)cc3)c2[N+](=O)[O-])cc1	-7.1%	4.9%	/	-2.7%
Cc1cc(=O)[nH]c2c1c(C)nn2C(C)(C)C	-0.8%	7.7%	3.7	-4.8%
CC(C)(C)n1nc2c(c1NC(=O)c1ccc(Cl)c([N+](=O)[O-])c1)CS(=O)(=O)C2	0.5%	0.7%	/	8.5%
CC(C)(C)S(=O)(=O)N1C[C@@H]2CC/C=C\C/C=C\2[C@H]1CCO	-3.6%	-10.3%	/	/
COc1ccc(NC(=O)CS(=O)CC(=O)Nc2ccc(-n3cnnn3)c(C)c2)cc1 (stereo not given)	1.2%	1.2%	/	-3.0%
O=C(NNc1ncnc2c1cnn2-c1ccc(F)cc1)c1cccs1	-3.0%	-0.2%	0.3	0.4%
COC(=O)C1=C(C)N(CC2CC2)C(=O)N[C@H]1c1ccc(Br)cc1	-0.9%	-6.2%	-9.4&-11.2	-2.7%
O=C(O)CCC(=O)Nc1nc2nccc(-c3ccccc3)n2n1	-3.2%	-4.2%	-0.6	2.2%
Cc1ccc2nc(Nc3ncc4c(n3)CCCC4=O)nc(C)c2c1	/	/	0.9	-12.9%
Cn1c(/C(C#N)=C(\O)c2ccc([N+](=O)[O-])cc2)nc2ccccc21	0.0%	10.9%	-13.7	-2.1%
CCOC(=O)C(=O)NCC(c1cccs1)S(=O)(=O)c1ccc(C)cc1 (stereo not given)	-4.2%	-7.5%	/	/
N#Cc1c(SCC(=O)Nc2nccs2)sc2c(O)cc(=O)[nH]c12	-3.9%	-5.5%	/	-16.0%

# Continuation:
SMILES	Rango complex inh	Rango dissoc inh	GLA inh pH 4.5	miR-21 FLuc
O=c1c2ccccc2nc2n1CC/C2=C\N1CCN(c2ccc([N+](=O)[O-])cc2)CC1	-5.4%	-2.5%	/	/
C[C@H](CO)N1C[C@H](C)[C@@H](CN(C)S(=O)(=O)c2cccs2)Oc2ccc(NS(=O)(=O)c3ccccc3)cc2CC1=O	0.0%	23.6%	/	/
O=C1SCC(c2ccc(Cl)cc2Cl)=NN1Cc1nnc(-c2ccccc2)o1	0.1%	5.2%	-7.4	-10.4%
CCc1ccc(C(=O)Nc2ccc(OC)c(S(=O)(=O)N3CCOCC3)c2)cc1	-0.3%	-2.1%	-3.7	18.6%
Cc1ccc(S(=O)(=O)NCC(=O)N(CC(=O)NCC2CCCO2)Cc2ccccc2)cc1 (stereo not given)	5.6%	0.4%	3.6	0.8%
Cc1ccc(CN2CC(C(=O)Nc3ncccc3C)CC2=O)cc1 (stereo not given)	6.1%	4.3%	/	0.9%
Cc1[nH]n(-c2ccccc2)c(=O)c1N=Nc1cccc(S(=O)(=O)N2CCOCC2)c1	-3.8%	2.9%	-2.5	-3.1%
O=C(/C=C/c1ccc(Cl)cc1Cl)N(Cc1ccc(Cl)cc1)C1CCS(=O)(=O)C1 (stereo not given)	-0.1%	1.1%	-3.7	-4.0%
O=C(CCN1C(=O)/C(=C/c2cccs2)SC1=S)NC1=NCCS1	4.4%	-14.9%	-1.0	-7.6%
O=C(Cn1nc(C(=O)O)c2ccccc2c1=O)Nc1ccccc1C(F)(F)F	1.4%	12.0%	/	-1.1%
CCOc1ccc(NC(=O)CN(C)C(=O)CN2C(=O)C3CC=CCC3C2=O)cc1OCC (stereo not given)	-3.7%	0.6%	/	/
CCC(=O)Nc1nnc(CCc2ccccc2)s1	4.4%	-1.3%	-4.4	-26.2%
CC12CCC(=O)N1C(C(=O)NCc1ccccc1F)CS2 (stereo not given)	1.3%	9.7%	/	/
CCc1ccc(S(=O)(=O)Nc2c(NC3CCCCC3)c3ccccc3oc2=O)cc1	-1.7%	7.5%	/	6.3%
CC1=NN(C(N)=S)C(=O)C1N=Nc1c(Cl)cc([N+](=O)[O-])cc1Cl (stereo not given)	0.1%	2.3%	/	7.3%

# (continued)
SMILES	Rango complex inh	Rango dissoc inh	GLA inh pH 4.5	miR-21 FLuc
CSc1nc(Oc2ccccc2)c2sccc2n1	2.2%	-4.7%	-12.1	-11.1%
O=C(O)Cn1cc(C(=O)C(F)(F)F)c2ccccc21	0.7%	-9.4%	4.1	0.6%
O=C(c1cccc(S(=O)(=O)N2CCCCCC2)c1)N1CCN(Cc2ccccc2)CC1	2.1%	0.3%	/	/
CCCc1cc(=S)n2c([nH]c3ccccc32)c1C#N	?	?	-7.3	-10.3%
CC(C)(C)SCCNS(=O)(=O)c1ccccc1	-3.4%	-7.6%	0.6	-1.7%
COc1cc(OC)c(OC)cc1CNC(=O)c1cc(S(=O)(=O)N(C)c2ccccc2OC)ccc1C	-0.3%	11.2%	/	/
COc1cccc(NC(=O)CN(C)C(=O)C(Sc2ccccc2)c2ccccc2)c1 (stereo not given)	6.8%	10.1%	/	/
Cc1ccc(-c2csc(N3CCN(c4cc5c(cc4Cl)nc(-c4ccncc4)n5CCN4CCCCC4)CC3)n2)cc1	1.5%	-1.2%	/	0.6%
Cc1cc(NC(=O)c2sccc2C)n(-c2nc3ccccc3[nH]2)n1	-5.1%	-4.4%	-4.4	14.3%
COc1ccc2nc(NCc3ccccc3)[nH]c2c1	1.3%	-8.5%	0.4	-0.1%
COc1ccc(CC(NC(C)=O)C(=O)NC2CCN(C(=O)NCc3ccccc3)CC2)cc1 (stereo not given)	4.5%	-12.0%	-6.6	-12.7%
Cc1cc(C)c(C(=O)NC2CC(C)(C)Cc3c2cnn3-c2ccccc2)o1 (stereo not given)	4.7%	23.5%	/	4.6%
CCOc1ccc2ccccc2c1CNCCc1ccc(S(N)(=O)=O)cc1	6.0%	-7.6%	/	1.4%
CC1Cc2ccccc2N1C(=O)CSc1nccc(=O)[nH]1 (stereo not given)	-1.1%	32.0%	-18.9	-1.7%
CC(=O)N1CC[n+]2c(-c3ccc([N+](=O)[O-])cc3)csc21	0.9%	-13.3%	-10.7	4.4%

# More results follow:
SMILES	Rango complex inh	Rango dissoc inh	GLA inh pH 4.5	miR-21 FLuc
COc1cc(OC)cc(C(=O)Nc2ccc(S(=O)(=O)Nc3nc(C)cc(C)n3)cc2)c1	2.1%	9.2%	1.0	-9.8%
O=C(NCCN1CCN(c2cccc(Cl)c2)CC1)Nc1ccccc1	2.7%	2.4%	/	0.0%&3.7%
COc1ccc(C(=O)/C=C/c2ccccc2)c(O)c1	-0.1%	13.8%	/	-31.3%
CCOC(=O)/C(C#N)=C\N(C)C	-0.1%	-10.2%	4.4	-2.7%
O=C(CCCOc1ccccc1)Nc1cccc([N+](=O)[O-])c1	-1.5%	2.3%	12.8	-12.5%
CCOCCn1c(C)c(C(=O)OCC)c2cc(O)c3ccccc3c21	3.0%	15.2%	/	/
COc1ccc(OC)c(S(=O)(=O)N/N=C\c2ccc3c(c2)OCO3)c1	-4.4%	11.0%	/	-13.0%
CC(OC(=O)c1ccc(S(=O)(=O)N(C)C)cc1)C(=O)Nc1ccc(Cl)cn1 (stereo not given)	2.1%	5.9%	-4.5	-1.9%
Cc1cccc(C(=O)Nc2ccc3c(c2)ncn3C)c1	-1.1%	-17.0%	/	-66.6%
O=C(Nc1ccccc1F)c1ccc2c(c1)OCO2	2.1%	-7.0%	/	-44.4%
OCCOCCNc1ncnc2c1cnn2-c1ccccc1	4.8%	0.6%	-5.0	-4.1%
CC(Sc1nnc(COc2ccc(Cl)cc2)o1)C(=O)Nc1ccc(N2CCOCC2)cc1 (stereo not given)	4.9%	1.2%	/	/
O=C(CSc1nnc(CNc2ccc(F)cc2)o1)N1c2ccccc2Sc2ccccc21	-0.2%	-13.7%	2.0	18.6%
CC(=O)Nc1ccc(S(=O)(=O)NCCC(=O)OCc2ccc([N+](=O)[O-])cc2)cc1	-0.2%	-5.8%	/	4.1%
CCOC(=O)CNC(=O)CSc1ncccc1-c1nc2ccccc2[nH]1	1.4%	-2.9%	/	-6.9%

# (further entries)
SMILES	Rango complex inh	Rango dissoc inh	GLA inh pH 4.5	miR-21 FLuc
Cc1ccc2oc(=O)n(Cc3ccc(OC(C)C)cc3)c2c1	-0.1%	-2.0%	/	-8.1%
O=C(O)c1ccccc1C(=O)OC1CCCC2CCCC21 (stereo not given)	5.6%	-4.4%	/	/
O=c1[nH]cc(F)c(=O)[nH]1	1.1%	9.0%	-16.8&0.0&0.6	5.6%
CC1(C)Cc2c(sc3nc(SCC(=O)NCc4ccccc4)n(-c4ccccc4)c(=O)c23)CS1	2.0%	2.1%	2.0	-3.3%
CCCn1c(=O)c2ccccc2n2c(SCc3c(C(=O)OCC)oc4ccccc34)nnc12	4.4%	-3.2%	1.7	0.2%
C=CCN1C(=O)C(CC(=O)Nc2ccccc2)SC1=Nc1c(C)n(C)n(-c2ccccc2)c1=O (stereo not given)	1.3%	14.4%	-3.5	0.2%
O=C1C2C3C=CC(C3)C2C(=O)N1Cc1cccnc1 (stereo not given)	2.8%	-7.3%	-9.7	-0.2%
O=C(O)c1cc(NN=Nc2cccc([N+](=O)[O-])c2)cc([N+](=O)[O-])c1	4.8%	0.6%	-4.1	-1.9%
Cc1ccc(S(=O)(=O)Oc2ccccc2/C=N/O)cc1	0.2%	9.3%	-0.3	-3.5%
COCCN1CCN(C(=O)C2CCC(=O)N(CCc3ccccc3)C2)CC1 (stereo not given)	-0.5%	9.9%	/	2.5%
Cc1nn2c3c(cnc2c1-c1ccccc1)C(=O)CC(c1ccccc1)C3 (stereo not given)	-1.2%	-0.1%	-2.1	-1.2%
CC1=C/C(=N\OS(=O)(=O)c2ccccc2)C=CC1=O	0.1%	5.0%	-1.0	?
CC1CN(C(=S)Nc2ccc(F)cc2F)CC(C)O1 (stereo not given)	-0.6%	12.2%	/	-3.5%
CCN(C(=O)CSc1nc2ccccc2o1)C1CCS(=O)(=O)C1 (stereo not given)	-1.3%	10.2%	/	/
CCCOc1ccc(/C=C/C(=O)OCC(=O)N(C)c2c(N)n(Cc3ccccc3)c(=O)[nH]c2=O)cc1OCC	-4.3%	0.5%	/	/

# No new results follow: entries from further up.
SMILES	Rango complex inh	Rango dissoc inh	GLA inh pH 4.5	miR-21 FLuc
CC1CN(C(=S)Nc2ccc(F)cc2F)CC(C)O1 (stereo not given)	-0.6%	12.2%	/	-3.5%
CCN(C(=O)CSc1nc2ccccc2o1)C1CCS(=O)(=O)C1 (stereo not given)	-1.3%	10.2%	/	/

# Next compounds
SMILES	Rango complex inh	Rango dissoc inh	GLA inh pH 4.5	miR-21 FLuc
O=C(CC1(O)C(=O)c2ccccc2C1=O)c1ccccc1	-3.5%	-0.3%	12.5	-19.9%
Cc1ccc(NC(=O)C2CCN(S(C)(=O)=O)CC2)cc1Cl	-1.2%	?	/	-7.9%
CC(=O)N(Cc1ccccc1)Cc1nc2sc(C)c(C)c2c(=O)[nH]1	1.6%	5.9%	-9.6	0.3%
Cn1c(=O)c2c(nc(CN3CCOCC3)n2CCCc2ccccc2)n(C)c1=O	-0.9%	9.4%	3.3	-0.1%
COc1cc2[nH]c(=O)n(C3CCCCC3)c(=O)c2cc1OC	0.7%	0.7%	1.4	-7.1%
COc1cc2c(cc1OC)C(C)N(C(=O)c1c(-c3ccccc3)noc1C)CC2 (stereo not given)	0.3%	2.0%	-1.2	23.6%
CC(=O)Oc1ccccc1C1OCCN1C(C)=O (stereo not given)	-0.9%	-0.3%	3.8	0.1%
COc1ccc(C2(c3ccc(OC)cc3)NC(=O)NC2=O)cc1	2.8%	-18.3%	/	-2.5%

# Screens (PubChem)
